Screening data as filed in PubChem.
NPYLR7 agonist = agonists of mosquito NPYLR7 receptor, primary screen, cell-based, Aedes aegypti, calcium fluorescence, mosquito biting behavior | AID 1259423, 2018 | activation, % at 10 µM | HEK293T NPYLR7/Galpha15, GCaMP6s calcium fluorescence | 270,000 tested, 0.15% active | Aedes aegypti neuropeptide Y-like receptor 7 (NPYLR7); in the data active means activation above about 40%;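 further: 0% = vehicle and 100% = reference agonist at the receptor; some compounds past the cut are filed as inactive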
NPYLR7 agonist max-min = further read-out of NPYLR7 agonist, marked with its call; activation, %; measured here: Max-Min RFU normalised activation; some inactives read as strong as hits;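 span of the calcium signal over five minutes; 0% = vehicle and 100% = native peptide agonist; compound fluorescence can raise it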
The depositor's hits bear a star; & = joins results of further samples. Some of the compounds tested; the hit share may differ from the screen's.

The opening 2 entries, to show the layout:
Below each SMILES – NPYLR7 agonist | NPYLR7 agonist max-min
C#Cc1cccc(NC(=O)NC2CCCN(Cc3ccc(F)cc3Cl)C2)c1 (stereo not drawn)
  4.3 | 1.2
CCOC(=O)C1CCN(C(=O)CC(c2cccc([N+](=O)[O-])c2)c2c[nH]c3c(CC)cccc23)CC1 (stereo not drawn)
  33.6 | 31.0

All compounds of this part, repeating the preview:
Below each SMILES – NPYLR7 agonist | NPYLR7 agonist max-min
C#Cc1cccc(NC(=O)NC2CCCN(Cc3ccc(F)cc3Cl)C2)c1 (stereo not drawn)
  4.3 | 1.2
CCOC(=O)C1CCN(C(=O)CC(c2cccc([N+](=O)[O-])c2)c2c[nH]c3c(CC)cccc23)CC1 (stereo not drawn)
  33.6 | 31.0
CCCNCC(=O)Nc1cc(C(C)(C)C)nn1C(C)(C)C
  13.7 | 22.8
CCOC(=O)C1(CC2CC2)CCN(C(C)CCc2c[nH]c3ccccc23)CC1 (stereo not drawn)
  14.8 | 3.6
Nc1ccc(C2CC(=O)NC(=O)N2)cc1 (stereo not drawn)
  5.5 | 9.0
OC(CN(Cc1cccc(F)c1)CC1CC(c2ccccc2)=NO1)c1ccccc1 (stereo not drawn)
  1.2 | 8.5
Cc1oc(-c2cccc(C(F)(F)F)c2)nc1CN(C)Cc1cnccn1
  -0.4 | -3.1
CC1CCCN(S(=O)(=O)c2ccc(CNC(=O)c3ccc(Cl)cc3)s2)C1 (stereo not drawn)
  -9.5 | -12.8
CCNC(=O)CCc1nc2cc(S(=O)(=O)N3CCCCC3)ccc2n1C
  13.9 | 20.3
O=C1/C(=C/c2ccc(Cl)cc2)C=C(c2ccccc2)N1c1ccccc1
  0.0 | 2.4
O=[N+]([O-])c1cc([N+](=O)[O-])c2oc(-c3ccccc3)c(Br)c2c1O
  -9.2 | -13.4
Cc1cc(-n2c(C)cc(C=C3SC(=NC4CCCC4)NC3=O)c2C)no1
  7.3 | 14.8
Cn1cnnc1SCC(=O)N1c2ccccc2Sc2ccc(C(F)(F)F)cc21
  -11.4 | -17.3
C=CCn1c(N)c(C#N)c2nc3ccccc3nc21
  15.0 | 7.2
CNC(=O)[C@H]1CN(C(=O)c2ccc(Cl)cc2)[C@]2(C)C(=O)N(CCOC)c3ccccc3[C@H]12
  -7.7 | -8.5
CS(=O)(=O)N1N=C(c2ccccc2)CC1c1ccc2nccnc2c1 (stereo not drawn)
  1.3 | 0.0
CC=CCn1c(N2CCN(C)CC2)nc2c1c(=O)[nH]c(=O)n2C
  11.1 | 5.5
O=C(OCc1nc2ccccc2c(=O)[nH]1)C1CCCN(C(=O)c2ccco2)C1 (stereo not drawn)
  -2.6 | 1.6
CC1(C(=O)Nc2cccc3c2CCCC3)CCN1C(=O)CC1CC1 (stereo not drawn)
  3.0 | -0.5
COCC(=O)Nc1ccc(N(C)C)c(CN(Cc2cccc(F)c2)C(=O)c2ccco2)c1
  -2.2 | 5.0
NCCNC1CS(=O)(=O)CC1O (stereo not drawn)
  -1.6 | -1.7
Cc1cc(O)c(C(c2ccccc2)N2CCC(C)CC2)c(=O)n1Cc1cccnc1 (stereo not drawn)
  14.6 | 7.9
Cc1ccc(NC(=O)C(C)Nc2ccccc2C(C)C)cc1 (stereo not drawn)
  4.1 | 0.9
c1nc(Sc2ccc3c(c2)OCCO3)c2c3c(sc2n1)CCCC3
  2.0 | 8.5
O=S(=O)(Nc1ccc(-n2cnnn2)cc1)c1ccc(Cl)cc1C(F)(F)F
  -0.6&13.7 | -2.3&12.9
O=C(NC1CCCCCC1)c1cc2cc([N+](=O)[O-])ccc2oc1=O
  0.7 | 3.9
COCCCN(CC(=O)N(Cc1cccn1Cc1ccc(F)cc1)C1CCCCC1)C(=O)c1cccc(Br)c1
  -1.4 | 3.4
Cc1cccc(-c2nc(NC(=O)C3Cc4cc(F)ccc4O3)n[nH]2)n1 (stereo not drawn)
  1.2 | 1.1
CCOC(=O)C1(C)CCCCCN1C(=O)/C=C/c1ccccc1 (stereo not drawn)
  0.0 | -4.1
O=C(CCOCC(F)(F)F)Nc1ccc2[nH]ccc2c1
  11.0 | 7.2
COc1ccc(OC)c(N2C(=O)c3cccc4cccc(c34)C2=O)c1
  4.8 | 17.2
O=C(c1cscn1)N1CC[C@@H](c2ccc3c(c2)OCO3)[C@H](O)C1
  23.4 | 19.6
Cc1ccc(C)c(S(=O)(=O)N(C)Cc2ccc(F)c(F)c2)c1
  -5.6 | -6.1
CC1CCN(S(=O)(=O)c2cc(Br)cc(C(=O)NC3=NCCS3)c2)CC1
  0.7 | -0.3
COc1ccc(CN2CCN(Cc3cnc(-c4cccc(C)c4)nc3)CC2CCO)cc1C (stereo not drawn)
  -3.3 | -2.8
COc1ccc(C(=O)NC2CC2)cc1OC1CCN(Cc2ccc(SC)cc2)CC1
  6.7 | 2.2
CCOC(=O)[C@H](C)NC(=O)C1(c2ccccc2F)CC1
  -5.5 | -7.2
Cc1ccccc1OCC1CCCN(Cc2nc(Cc3ccccc3F)no2)C1 (stereo not drawn)
  1.6 | 1.8
COc1ccc2cc(C3CN(C(=O)c4cc(N)n[nH]4)CCO3)ccc2c1 (stereo not drawn)
  0.4 | -2.9
COc1ccccc1OCC(O)CN1CCN(CC(=O)Nc2c(C)cccc2C)CC1 (stereo not drawn)
  -16.5&10.2&-2.8&2.0 | -30.2&-10.7&-8.7&-12.0
Cc1ccc(CN(C)C(=O)CC2C(=O)NCCN2Cc2ccc(F)c(F)c2)cc1 (stereo not drawn)
  13.4 | 2.0
CC1(C)CC2CC(C)(CN2C(=O)CSCC(=O)O)C1 (stereo not drawn)
  3.9 | 0.7
COC(=O)c1sccc1NS(=O)(=O)c1ccccc1
  -5.6 | 17.9
Cc1onc(-c2ccccc2)c1C(=O)N1CC(=O)N(CC(C)C)CC(OCc2ccccn2)C1 (stereo not drawn)
  15.0 | 2.9
COc1cc(OC)c(C=Nn2c(-c3ccc(Cl)cc3)n[nH]c2=S)c(OC)c1
  -4.8 | -3.7
Nc1c(C(=O)Nc2ccccc2)c2nc3ccccc3nc2n1/N=C\c1cccs1
  6.1 | 7.0
CCc1ccc(C=Nn2c(-c3ccc(F)cc3)csc2=NC)cc1
  6.3 | 3.5
CSc1nccc(-c2cc(Cl)c3c(c2)CC(CNC(=O)C(c2cccnc2)N2CCCC2)O3)n1 (stereo not drawn)
  18.1 | 8.6
CCC1CCc2sc(C(=O)N=c3sccn3C)cc2C1 (stereo not drawn)
  0.8 | 7.3
Cc1ccc(CNCC2(O)CCCN(CCc3ccccc3)C2=O)s1 (stereo not drawn)
  8.1 | 7.8
Cc1cccc(NC(=O)CSc2nc(=O)n3cccc(C)c3n2)c1
  18.1 | 14.1
Nc1nc(N2CCN(Cc3ccccc3)CC2)nc(NC2CCCCC2)c1[N+](=O)[O-]
  2.9 | 1.9
CCOc1ccc(CN2CCN(C/C=C/c3ccccc3OC)CC2CCO)cc1 (stereo not drawn)
  1.6 | -0.9
COc1cc2c(cc1CN1CCN(Cc3cccc(F)c3)CC1)OCCO2
  6.9 | 5.8
CCCCc1cc(=O)[nH]c(-c2ccc(CN3CCN(C(=O)N(C)C)CC3)cc2)n1
  0.0 | -2.3
CCOC(=O)C1(C)CCCCN1C(=O)c1c(F)ccc(C)c1F (stereo not drawn)
  -0.6 | -0.9
Cc1ccsc1C(=O)N1CCC1(C)C(=O)NS(=O)(=O)Cc1ccccc1C(F)(F)F (stereo not drawn)
  1.5 | -1.9
CCc1cccc(NC(=O)CCC(=O)N2CCN(c3cccc(C)n3)CC2)c1
  22.8 | 15.7
COc1ccc(-c2csc(-n3[nH]c(C)c(N=Nc4ccc(NC(C)=O)cc4)c3=O)n2)cc1
  3.5 | 3.5
CCOC(=O)C1C(=N)OC2=C(C(=O)CC(C)(C)C2)C1c1cccc(Cl)c1 (stereo not drawn)
  1.9 | -3.8

Next compounds:
Below each SMILES – NPYLR7 agonist | NPYLR7 agonist max-min
Cc1ncoc1C(=O)N(CCN1CCCCC1)CC1CCCN(C2CCCC2)C1 (stereo not drawn)
  0.4 | -1.5
CC(C)Nc1ncccc1C(=O)NCc1cccs1
  -7.4 | -9.3
COc1cccc(S(=O)(=O)N2C(C)CCCC2C)c1 (stereo not drawn)
  -3.2 | -6.8
Cc1nc(C)c2c(N)c(C(=O)OCc3cc(C)on3)sc2n1
  -3.2 | -7.2
COCCNC(=O)Cn1ncc2ccsc2c1=O
  1.5 | -0.5
CCC(c1n[nH]c(=S)n1-c1ccccc1)N(C)C (stereo not drawn)
  -5.3 | -6.5
CC(C)c1cc(C(=O)NC(C)c2ccccc2-n2cccn2)n(C)n1 (stereo not drawn)
  -6.9 | -7.8
CC1(c2ccc(NC(=O)C3CCCC3)cc2)NC(=O)NC1=O (stereo not drawn)
  10.3 | 6.2
COc1cn(CC(=O)NCCc2ccccc2)c(CN2CCCCCC2)cc1=O
  0.6 | -2.6
CCOc1ccc2nc(N(Cc3cccnc3)C(=O)C3=COCCO3)sc2c1
  -6.8 | -6.9
COc1ccc(C)cc1C(C)NC(=O)N1CCN(c2nccs2)CC1 (stereo not drawn)
  2.7&12.4 | 0.2&10.4
c1ccc(-c2nc3c(c(N4CCN(C5CCSC5)CC4)n2)CCC3)cc1 (stereo not drawn)
  -2.4 | -3.0
CC1=NOC(C(=O)N2CCC(c3n[nH]c(=O)n3Cc3ccccc3)CC2)C1 (stereo not drawn)
  2.9 | 2.5
COc1ccc(NC(=O)COc2c(Cl)cccc2Cl)cn1
  3.6 | 0.7
C=CCCC(O)(CCC=C)c1ccc(CN(CCCOC)Cc2ccccc2F)o1
  -8.3 | -0.2
COc1cc(C2N(C)CCC3(OCCO3)C2(C)C)cc(OC)c1OC (stereo not drawn)
  8.6 | 2.9
CCOc1ccc(-n2nnc3c(N4CCN(S(=O)(=O)c5ccc(C)c(C)c5)CC4)ncnc32)cc1
  -14.8 | -21.0
CCOc1ccc(C(=O)Nc2ccc3nn(-c4ccccc4)nc3c2)cc1[N+](=O)[O-]
  -7.7 | -16.1
COC(=O)c1ccc(CN2CCN(c3cc(Cl)ccc3OC)C(=O)C2C)cc1 (stereo not drawn)
  -1.0 | 2.2
Cc1ccc(C(C)(C)C)cc1S(=O)(=O)NCCCOC(C)C
  3.0 | 2.4
CC(/C=C/c1ccccc1)=N/NC(=O)Cn1cnc([N+](=O)[O-])n1
  -3.7 | -10.6
O=C(NC1CCCc2ccccc21)c1ccc(-c2cc(-c3cccc4ccccc34)[nH]n2)cc1 (stereo not drawn)
  24.2 | 8.0
O=C(NC1CCCCC1)C(=O)c1ccc(C2CCCCC2)cc1
  -6.1 | -14.1
Cc1cc(C(=O)N2CCC(C(N)=O)CC2)c(C)n1C(C)c1ccccc1 (stereo not drawn)
  -1.9 | -1.5
COc1ccc2nc(/C=C/c3ccc(C#N)cc3)sc2c1
  18.7 | 9.6
CN1CCC=C(CNC(=O)CSc2ccccc2)C1
  21.5 | 6.2
CCCc1nc(C)sc1C(=O)N(C)CCc1ccc(OC)c(OC)c1
  -4.5 | -6.2
COc1ccccc1-c1cc(C(=O)NC(C)(C)C)nc2cc(-c3ccccc3)nn12
  9.4 | 8.7
Cc1ccc(-c2c(C)nn3c(NCC(C)C)cc(C)nc23)cc1
  3.7 | 5.3
C=CC(C)(O)CN(C)CC1CC(c2ccccc2)=NO1 (stereo not drawn)
  -0.7 | 5.1

Not a retest: seven of the compounds above.
Below each SMILES – NPYLR7 agonist | NPYLR7 agonist max-min
Cc1cc(C(=O)N2CCC(C(N)=O)CC2)c(C)n1C(C)c1ccccc1 (stereo not drawn)
  -1.9 | -1.5
COc1ccc2nc(/C=C/c3ccc(C#N)cc3)sc2c1
  18.7 | 9.6
CN1CCC=C(CNC(=O)CSc2ccccc2)C1
  21.5 | 6.2
CCCc1nc(C)sc1C(=O)N(C)CCc1ccc(OC)c(OC)c1
  -4.5 | -6.2
COc1ccccc1-c1cc(C(=O)NC(C)(C)C)nc2cc(-c3ccccc3)nn12
  9.4 | 8.7
Cc1ccc(-c2c(C)nn3c(NCC(C)C)cc(C)nc23)cc1
  3.7 | 5.3
C=CC(C)(O)CN(C)CC1CC(c2ccccc2)=NO1 (stereo not drawn)
  -0.7 | 5.1

The listing continues.
Below each SMILES – NPYLR7 agonist | NPYLR7 agonist max-min
CCOC(=O)c1ccc2c(c1)nc(SCc1cccc(F)c1)n2Cc1ccccc1
  -4.4 | -5.9
O=c1ccc(-c2ccc(F)cc2)nn1CCNS(=O)(=O)c1cccc(C(F)(F)F)c1
  -4.5 | -5.1
CCc1cc2c(=O)[nH]c(-c3ccccn3)nc2s1
  3.5 | 3.5
CC(=O)Oc1c(-c2ccc(NC(=O)c3ccco3)cc2)c(-c2ccc(N(C)C)cc2)nn1-c1ccc(C)cc1C
  -0.9 | -2.9
O=C(N/N=c1/oc2ccccc2cc1-c1nc2ccccc2[nH]1)c1cccc([N+](=O)[O-])c1
  -4.4 | -7.5
Cc1ccc(N2C(=O)CSC2c2coc3ccccc3c2=O)cc1F (stereo not drawn)
  8.2 | 11.3
CCCCC(CC)C(=O)Nc1c(-c2cc(C)cc(C)c2)nc2cc(C)ccn12 (stereo not drawn)
  -8.6 | -10.0
COCc1c(Br)c(C)nc(OCC(=O)N/N=C\c2ccc(OCc3ccc(Cl)cc3Cl)cc2)c1C#N
  10.0 | 15.8
Cc1cc(C)cc(N2C(=O)CSC2c2cccc(NC(=O)c3ccc(Cl)cc3)c2)c1 (stereo not drawn)
  3.9 | 19.1
Cc1ccc(S(=O)(=O)n2c([N+](=O)[O-])cnc2C)c(C)c1
  3.3 | 1.0
